Yeast UUG start: yeast start codon fidelity modulation. S. cerevisiae UUG-firefly luciferase reporter, luminescence/redox ratio. activity score, % at 18.7 µM. actives 0.13% (n = 350,000). AID 602363;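 active means replicate mean at a twofold rise or more, about +100% in these data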;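 further: firefly luciferase made from a UUG start codon reports start codon fidelity; reporter light over untreated wells divided by growth signal over untreated wells; some hits fall short of that in this replicate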
* marks the source's active call; other numbers are inactive results. Some of the compounds tested. The share of hits here may be higher or lower than overall.

entry	Yeast UUG start	smiles
1	2	C/C=C/c1ccc([C@H]2[C@@H](CO)N3CCCCN(CCC(F)(F)F)C[C@@H]23)cc1
2	10	COCC(=O)N1C[C@H]2[C@@H](c3ccccc31)[C@@H](CO)N2C(=O)c1ccccc1F
3	5	Cc1ccccc1S(=O)(=O)N1CC[C@@H]2[C@H]1c1cc(-c3ccc(F)cc3)ccc1N[C@@H]2CO
4	-5	CO[C@H]1CN(C)C(=O)c2cc(NC(=O)Nc3ccccc3)ccc2OC[C@@H](C)N(C(=O)CN(C)C)C[C@H]1C
5	-9	CN(C[C@@H]1[C@@H](c2ccccc2)[C@H](CO)N1Cc1ccccn1)S(C)(=O)=O
6	3	O=C(Nc1cccc(Cl)c1)N1C[C@@H]2[C@H](c3ccccc31)[C@@H](CO)N2CC1CCCCC1
7	1	Cc1ccc(S(=O)(=O)Nc2ccc3c(c2)C(=O)N([C@@H](C)CO)C[C@@H](C)[C@@H](CN(C)Cc2ccc(Cl)c(Cl)c2)O3)cc1
8	-14	O=C(c1ccncc1)N1C[C@H]2[C@@H](c3ccccc31)[C@H](CO)N2Cc1ccc(F)cc1
9	-6	N#Cc1cccc(-c2ccc3c(c2)[C@@H]2[C@@H](CCN2S(=O)(=O)c2cccc(F)c2)[C@H](CO)N3)c1
10	5	COc1cccc(C(=O)N2C[C@@H]3[C@H](c4ccccc42)[C@H](CO)N3C(C)=O)c1
11	-17	C[C@H](CO)N1C[C@H](C)[C@H](CN(C)S(=O)(=O)c2ccccc2)Oc2c(cccc2N(C)C)C1=O
12	-12	Cc1ccccc1S(=O)(=O)N1C[C@H](O)COC[C@@H]2O[C@@H](CC(=O)N3CCOCC3)CC[C@H]21
13	1	CCC(=O)NC[C@H]1[C@H](c2ccccc2)[C@H](CO)N1C(=O)C1CCC1
14	3	CC(=O)N1[C@@H]2CN(C(=O)c3ccc(F)cc3)c3ccccc3[C@@H]2[C@@H]1CO
15	8	CO[C@H]1CN(C)C(=O)c2ccc(NS(=O)(=O)c3cccc(F)c3)cc2OC[C@@H](C)N(Cc2cc(F)ccc2F)C[C@@H]1C
16	-1	CO[C@H]1CN(C)C(=O)c2cc(NS(C)(=O)=O)ccc2OC[C@H](C)N(C(=O)C2CCCC2)C[C@@H]1C
17	6	CO[C@@H]1CN(C)C(=O)c2cc(NC(=O)Nc3cccc(Cl)c3)ccc2OC[C@@H](C)N(C)C[C@@H]1C
18	-2	Cc1noc(C)c1S(=O)(=O)Nc1cccc2c1O[C@@H](CN(C)C(=O)NC1CCCCC1)[C@@H](C)CN([C@H](C)CO)C2=O
19	-3	COCC(=O)NC[C@@H]1[C@@H](c2ccccc2)[C@@H](CO)N1C(=O)c1ccccc1
20	-13	COc1ccc(S(=O)(=O)N2CCCCN3[C@H](C2)[C@H](c2ccc(-c4cccnc4)cc2)[C@@H]3CO)cc1
21	-7	CO[C@H]1CN(C)C(=O)c2ccc(NS(=O)(=O)c3ccccc3)cc2OC[C@H](C)N(Cc2ccccn2)C[C@@H]1C
22	-7	C[C@@H]1CN([C@@H](C)CO)C(=O)Cc2cc(NC(=O)Nc3ccccc3)ccc2O[C@H]1CN(C)Cc1ccc(C(=O)O)cc1
23	-1	CCS(=O)(=O)Nc1ccc2c(c1)C(=O)N(C)C[C@@H](OC)[C@H](C)CN(C(=O)NC(C)C)[C@@H](C)CO2
24	28	C[C@@H]1CN([C@@H](C)CO)C(=O)c2cccc(NC(=O)Nc3ccc4c(c3)OCO4)c2O[C@@H]1CN(C)Cc1ccc(Oc2ccccc2)cc1
25	0	O=C(c1cccc(F)c1)N1CCCCN2[C@@H](CO)[C@@H](c3ccc(-c4cncnc4)cc3)[C@@H]2C1
26	-6	C[C@H](CO)N1C[C@H](C)[C@H](CN(C)Cc2ccccc2)Oc2ccc(NC(=O)C3CC3)cc2C1=O
27	13	CCC(=O)NC[C@H]1[C@H](c2ccccc2)[C@@H](CO)N1C(=O)C1CC1
28	-6	O=C(C[C@H]1CC[C@@H]2[C@H](COC[C@@H](O)CN2Cc2ccccc2F)O1)NCc1ccccc1F
29	22	C[C@@H]1CN([C@H](C)CO)C(=O)c2c(c3ccccc3n2C)-c2ccccc2CO[C@H]1CN(C)S(=O)(=O)c1ccc(Cl)cc1
30	5	Cc1noc(C)c1S(=O)(=O)Nc1ccc2c(c1)C(=O)N([C@@H](C)CO)C[C@H](C)[C@H](CN(C)Cc1ccc(Oc3ccccc3)cc1)O2
31	0	Cc1ccc(S(=O)(=O)N(C)C[C@H]2Oc3ccc(NC(=O)CCN4CCOCC4)cc3C(=O)N([C@@H](C)CO)C[C@H]2C)cc1
32	6	COc1ccc(C#Cc2ccc([C@H]3[C@@H](CO)N4CCCCN(Cc5ccccc5F)C[C@H]34)cc2)cc1
33	12	COc1ccc(S(=O)(=O)N(C)C[C@@H]2Oc3ccc(NC(=O)CCCN(C)C)cc3C(=O)N([C@@H](C)CO)C[C@H]2C)cc1
34	-29	COc1ccc(C(=O)NCC(=O)OCc2nc(N)nc(Nc3ccccc3C)n2)cc1
35	13	CC(C)(O)C#Cc1ccc([C@H]2[C@H](CO)N3CCCCN(C(=O)c4ccc(F)cc4)C[C@@H]23)cc1
36	2	C[C@H]1CN([C@@H](C)CO)C(=O)c2cccc(NS(=O)(=O)c3ccc(Cl)cc3)c2O[C@@H]1CN(C)Cc1ccc(Oc2ccccc2)cc1
37	-3	O=C(c1cccnc1)N1CCCCN2[C@H](CO)[C@H](c3ccc(C#Cc4ccccc4)cc3)[C@@H]2C1
38	4	CN1c2ccc(-c3ccccc3)cc2[C@@H]2[C@@H](CCN2C(=O)c2ccncc2)[C@@H]1CO
39	-7	O=C(C[C@H]1C[C@H]2c3cc(NC(=O)CC4CC4)ccc3O[C@H]2[C@H](CO)O1)NCc1cccnc1
40	-7	CCS(=O)(=O)Nc1ccc2c(c1)C(=O)N(C)C[C@@H](OC)[C@@H](C)CN(C(=O)C1CC1)[C@H](C)CO2

An excerpt of these results, tab-delimited:
cpd	compound	Yeast UUG start
3	Cc1ccccc1S(=O)(=O)N1CC[C@@H]2[C@H]1c1cc(-c3ccc(F)cc3)ccc1N[C@@H]2CO	5
4	CO[C@H]1CN(C)C(=O)c2cc(NC(=O)Nc3ccccc3)ccc2OC[C@@H](C)N(C(=O)CN(C)C)C[C@H]1C	-5
5	CN(C[C@@H]1[C@@H](c2ccccc2)[C@H](CO)N1Cc1ccccn1)S(C)(=O)=O	-9
6	O=C(Nc1cccc(Cl)c1)N1C[C@@H]2[C@H](c3ccccc31)[C@@H](CO)N2CC1CCCCC1	3
7	Cc1ccc(S(=O)(=O)Nc2ccc3c(c2)C(=O)N([C@@H](C)CO)C[C@@H](C)[C@@H](CN(C)Cc2ccc(Cl)c(Cl)c2)O3)cc1	1
8	O=C(c1ccncc1)N1C[C@H]2[C@@H](c3ccccc31)[C@H](CO)N2Cc1ccc(F)cc1	-14
9	N#Cc1cccc(-c2ccc3c(c2)[C@@H]2[C@@H](CCN2S(=O)(=O)c2cccc(F)c2)[C@H](CO)N3)c1	-6

Next section:
entry	Yeast UUG start	smiles
41	1	CN1c2ccc(-c3ccccc3)cc2[C@H]2[C@H](CCN2C(=O)Cc2ccccn2)[C@H]1CO
42	-2	O=C(NC1CCCC1)N1CCCCN2[C@H](CO)[C@@H](c3ccc(-c4cccnc4)cc3)[C@@H]2C1
43	-14	COc1ccc(CN(C)C[C@@H]2Oc3c(NC(=O)Nc4c(C)noc4C)cccc3C(=O)N([C@H](C)CO)C[C@H]2C)cc1
44	-15	COc1ccccc1C(=O)Nc1ccc2c(c1)C(=O)N(C)[C@@H]1CC[C@@H](CC(=O)NCc3ccc(Cl)c(Cl)c3)O[C@@H]1CO2
45	-9	CCCN1C[C@H](C)[C@@H](OC)CN(C)C(=O)c2ccc(NC(=O)Nc3ccccc3F)cc2OC[C@H]1C
46	9	CC(=O)N1CCCCN2[C@H](C1)[C@@H](c1ccc(Br)cc1)[C@@H]2CO
47	4	C[C@H](CO)N1C[C@H](C)[C@H](CN(C)Cc2ccc(C(=O)Nc3ccccc3N)cc2)Oc2ccc(NS(=O)(=O)c3cn(C)cn3)cc2C1=O
48	7	COc1ccc(S(=O)(=O)Nc2ccc3c(c2)C(=O)N([C@@H](C)CO)C[C@H](C)[C@@H](CN(C)CC2CCCCC2)O3)cc1
49	-14	CCCC#Cc1ccc([C@@H]2[C@@H](CO)N3CCCCN(S(=O)(=O)c4ccccc4C)C[C@@H]23)cc1
50	22	O=C(C[C@@H]1CC[C@@H]2[C@H](COC[C@H](O)CN2C(=O)Nc2ccc(Cl)c(Cl)c2)O1)NCc1ccc(F)cc1
51	-4	COCC(=O)Nc1ccc2c(c1)OC[C@H](C)N(Cc1ccccc1)C[C@H](C)[C@@H](OC)CN(C)C2=O
52	12	CO[C@H]1CN(C)C(=O)c2cc(NS(=O)(=O)c3ccc(C)cc3)ccc2OC[C@@H](C)N(C)C[C@@H]1C
53	4	C[C@H](CO)N1C[C@H](C)[C@@H](CN(C)Cc2ccc(C(=O)O)cc2)Oc2ccc(NC(=O)Cc3cn(C)c4ccccc34)cc2C1=O
54	25	C[C@@H]1CN([C@@H](C)CO)C(=O)c2c(c3ccccc3n2C)-c2ccccc2CO[C@@H]1CN(C)S(=O)(=O)c1ccc(Cl)cc1
55	8	C[C@H]1CN([C@@H](C)CO)C(=O)c2cccc(NC(=O)Nc3ccccc3)c2O[C@@H]1CN(C)C(=O)Nc1cccc2ccccc12
56	8	CCN1[C@@H]2c3ccc(-c4cccc(F)c4)c(=O)n3C[C@@H]2[C@@H](CO)[C@@H]1C(=O)N[C@@H](C)c1ccccc1
57	-4	Cc1cccc(S(=O)(=O)N2C[C@H]3[C@@H](c4ccccc42)[C@@H](CO)N3C(=O)C2CC2)c1
58	20	O=C(C[C@H]1CC[C@@H]2[C@H](COC[C@H](O)CN2Cc2ccc(Oc3ccccc3)cc2)O1)N1CCCCC1
59	-3	CCC(=O)N1[C@H](CO)[C@H](c2ccccc2)[C@@H]1CNC(=O)CN1CCOCC1
60	6	O=C(C1CCOCC1)N1CC[C@@H]2[C@@H](CO)Nc3ccc(-c4cccc(F)c4)cc3[C@@H]21
61	-20	COc1ccc(C#Cc2ccc3c(c2)[C@@H]2[C@@H](CCN2C(=O)c2cnccn2)[C@@H](CO)N3)cc1
62	23	CN(C)C(=O)c1cccc(-c2ccc3c(c2)[C@@H]2[C@@H](CCN2C(=O)C2CC2)[C@H](CO)N3)c1
63	4	CO[C@H]1CN(C)C(=O)c2cc(NC(=O)C3CCC3)ccc2OC[C@H](C)N(C(=O)NC(C)C)C[C@@H]1C
64	1	Cc1ccc(S(=O)(=O)Nc2ccc3c(c2)CC(=O)N([C@H](C)CO)C[C@@H](C)[C@@H](CN(C)CC2CC2)O3)cc1
65	-11	CO[C@@H]1CN(C)C(=O)c2ccc(NS(=O)(=O)c3ccc(Cl)cc3)cc2OC[C@@H](C)N(C(=O)NC(C)C)C[C@@H]1C
66	-16	CO[C@@H]1CN(C)C(=O)c2cc(NC(=O)C3CCC3)ccc2OC[C@H](C)NC[C@@H]1C
67	22	Cc1cccc(S(=O)(=O)N2CC[C@@H]3[C@H]2c2cc(-c4ccc(C#N)cc4)ccc2N(C)[C@H]3CO)c1
68	-1	OC[C@@H]1[C@H](c2ccc(-c3ccc(F)cc3)cc2)[C@H]2CN(CCC(F)(F)F)CCCCN12
69	-20	CN1c2ccc(-c3cccc(F)c3)cc2[C@H]2[C@H](CCN2C(=O)c2ccc3c(c2)OCO3)[C@@H]1CO
70	1	CC(=O)Nc1ccc2c(c1)C(=O)N(C)[C@H]1CC[C@@H](CC(=O)NCc3ccc(Cl)cc3)O[C@@H]1CO2
71	-8	CN(C[C@H]1N[C@@H](CO)[C@H]1c1ccc(-c2cccc(F)c2)cc1)C(=O)CC1CC1
72	6	O=C(C[C@H]1CC[C@@H]2[C@H](COC[C@@H](O)CN2Cc2cccc(C(F)(F)F)c2)O1)NCc1ccc(F)cc1
73	-11	C[C@@H]1CN([C@H](C)CO)C(=O)c2cccc(NC(=O)c3cnccn3)c2O[C@@H]1CN(C)C
74	-15	O=C(Nc1ccc(Cl)cc1)N1C[C@H]2[C@@H](c3ccccc31)[C@@H](CO)N2C(=O)c1cccnc1
75	5	CN(C)CC#Cc1ccc([C@@H]2[C@H]3CN(C(=O)CN(C)C)CCCCN3[C@H]2CO)cc1
76	7	Cc1ccc(S(=O)(=O)Nc2ccc3c(c2)CC(=O)N([C@H](C)CO)C[C@H](C)[C@@H](CN(C)CC2CC2)O3)cc1
77	18	Cc1noc(C)c1NC(=O)N(C)C[C@@H]1Oc2ccc(NC(=O)Cc3cn(C)c4ccccc34)cc2C(=O)N([C@H](C)CO)C[C@@H]1C
78	-4	Cc1ccccc1S(=O)(=O)N1CC[C@@H]2[C@H](CO)Nc3ccc(-c4cccc(C#N)c4)cc3[C@@H]21
79	-12	Cc1ccc(S(=O)(=O)Nc2ccc3c(c2)C(=O)N([C@H](C)CO)C[C@H](C)[C@@H](CN(C)C)O3)cc1
80	2	C[C@H](CO)N1C[C@H](C)[C@@H](CN(C)C(=O)Nc2ccccc2)Oc2ccc(NC(=O)Nc3cccc4ccccc34)cc2C1=O
81	-3	COCCN(C[C@H]1[C@H](c2ccccc2)[C@@H](CO)N1C(=O)C1CC1)C(C)=O
82	-22	CNC[C@@H]1Oc2ccc(NS(=O)(=O)c3ccc(C)cc3)cc2CC(=O)N([C@@H](C)CO)C[C@H]1C
83	35	CCC(=O)N1[C@@H]2c3ccc(C4=CCCCC4)c(=O)n3C[C@H]1[C@H](CO)[C@H]2C(=O)N[C@H](C)c1ccccc1
84	-7	O=C(c1cccc(F)c1)N1CCCCN2[C@H](CO)[C@@H](c3ccc(/C=C/c4ccccc4)cc3)[C@@H]2C1

Screens as filed in PubChem BioAssay.
